Assay outcomes: PubChem, several laboratories
UUG fidelity – alters start codon recognition fidelity in yeast | S. cerevisiae UUG-firefly luciferase reporter, luminescence/redox ratio | activity score, % at 18.7 µM | hit rate 0.13% among 350,000 | AID 602363;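 active = replicate mean at a twofold rise or more, about +100% in these data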;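 also: firefly luciferase made from a UUG start codon reports start codon fidelity; reporter light over untreated wells divided by growth signal over untreated wells; some hits fall short of that in this replicate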
Env fusion inh – blocks HIV Env-driven cell-cell fusion. HeLa-JRFL Env/CEM21 cell fusion, luciferase. AID 651610. inhibition, % at 12.3 µM. hit rate 1.1% among 360,000;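 active = mean replicate inhibition score of at least 50 and every replicate individually at or above 50; inconclusive = only one of the two criteria met; inactive = mean below 50 and not all replicates reaching 50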;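 also: 0% = plate neutral controls and 100% = maraviroc near 300 nM; one replicate is shown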
eIF4H FP inh – inhibitors of RNA binding by human eIF4H. Q15056. eIF4H fluorescence polarization binding assay. inhibition, % at 35 µM. hit rate 0.94% among 290,000;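 active = 50% or more with normal probe brightness, or confirmed in later tests; inconclusive = above 50% with abnormal brightness, or retests that disagree; inactive = below 50% or failed in later tests; about a fifth of its hits are not listed in these tables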;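 also: calls also rest on retests at 20 µM and on dose response follow-up; 0% = protein and probe with vehicle and 100% = probe without protein; strong numbers were not always called active; many hits fall short of the cut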
Rce1 inh – blocks yeast Ras-converting enzyme. calls only. hit rate 0.27% among 290,000. AID 2563. yeast membranes, quenched prenylated peptide cleavage fluorescence. Q03530;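 active = fall in fluorescence gain of 50% or more versus controls, with final raw signal at or below 3038400; inconclusive = same 50% fall but final raw signal above 3038400; inactive = fall in fluorescence gain under 50%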;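 also: plate controls were neutral control wells for no effect and wells lacking membranes for full effect; tested at 10 µM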
Target sequence (Q03530 whole entry, looked up): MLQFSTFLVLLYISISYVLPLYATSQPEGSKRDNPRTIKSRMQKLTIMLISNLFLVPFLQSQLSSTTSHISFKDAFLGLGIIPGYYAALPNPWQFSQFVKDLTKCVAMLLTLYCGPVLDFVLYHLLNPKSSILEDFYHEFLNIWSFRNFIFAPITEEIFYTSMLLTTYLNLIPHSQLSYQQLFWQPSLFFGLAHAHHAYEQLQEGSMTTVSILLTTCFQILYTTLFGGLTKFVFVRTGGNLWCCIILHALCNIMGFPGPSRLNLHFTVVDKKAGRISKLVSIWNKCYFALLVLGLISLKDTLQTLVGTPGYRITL
CSC inhib – blocks cancer stem cells; AID 2717; inhibition, % at 7.5 µM; hit rate 1.1% among 300,000; cancer stem cell-like cells viability, luminescence;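 active = mean at 75% or more and at least half the replicates too; inconclusive = mean and replicates disagree; tested in HMLE shEcad cells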;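 also: 0% = median of negative and 100% = median of positive control wells; the first replicate is given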
PABP polyA inh – blocks human PABP binding to poly(A) RNA. P11940. fluorescence polarization. inhibition, % at 35 µM. hit rate 1% among 290,000;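 active = 50% or more with normal probe brightness, or confirmed in later tests; inconclusive = above 50% with abnormal brightness, or retests that disagree; inactive = below 50% or failed in later tests; about a fifth of its hits are not listed in these tables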;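 also: calls also rest on retests at 20 µM and on dose response follow-up; controls were probe without protein and protein plus probe with vehicle; some compounds called inactive have numbers as strong as hits; many hits fall short of the cut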
MT1-MMP act inh – inhibitors of human MT1-MMP activation. HT1080 RFP-PRO-GFP cells, GFP/RFP ratio fluorescence, overnight; percent of plate control window, DMSO zero. GFP/RFP ratio change, % at 20 µM. hit rate 0.061% among 360,000. AID 651647;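 active = GFP/RFP ratio change of at least 30% with cell ATP level not reduced by more than half and red fluorescence within 50% of control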; also: strong numbers were not always called active
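system = RFP-PRO-GFP reporter HT1080 cells | dosing = 20 µM single dose, 1% DMSO | timing = overnight cell settling, then overnight compound exposure, 37 °C, 5% CO2 | read-out basis = GFP/RFP fluorescence ratio | controls = DMSO and RFP-L50D-GFP cell wells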
MT1-MMP act inh RFP – recorded beside MT1-MMP act inh, whose call it bears; RFP signal change, %; measured here: RFP expression control read;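 0 = vehicle wells; hits needed this value within 50% of zero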
* = called active by the depositor; i = inactive; ? = inconclusive; . = not tested or not shown; & = joins results of further samples.

SMILES | UUG fidelity | Env fusion inh | eIF4H FP inh | Rce1 inh | CSC inhib | PABP polyA inh | MT1-MMP act inh | MT1-MMP act inh RFP
O=C1c2ccccc2C2=Nc3ccccc3SC(c3ccc(Cl)cc3)C12 (stereo unspecified) | . | 3 | 38 | i | 127* | -10 | -9 | -4
CCOc1ccc(OCc2ccc(C(=O)N3CCc4ccccc4C3)o2)cc1 | -16 | . | 1 | i | 26 | -3 | 0 | 0
C[C@H](CO)N1C[C@H](C)[C@@H](CN(C)C(=O)Nc2ccc(C(F)(F)F)cc2)Oc2ccc(NC(=O)Cc3ccccc3)cc2C1=O | -5 | 30 | . | . | 11 | . | 6 | 0
C/C(=C/c1oc2ccc(O)cc2c1[N+](=O)[O-])N(C)C | -5 | -114 | -8 | i | 0 | -5 | 43* | 1.7*
COc1ccc(N(CC(=O)N/N=C(\C)c2ccccc2)S(=O)(=O)c2ccccc2)cc1 | -12 | 2 | 2 | i | -18 | -3 | -2 | 4
Cc1ccc(NS(=O)(=O)c2cccc3cccnc23)c(Cl)c1 | -3 | -10 | 2 | i | 2 | -19 | -2 | -3
O=C(CN1C(=O)C(=O)N(C2CCCC2)C1=O)Nc1ccc([N+](=O)[O-])cc1 | -5 | -16 | . | . | . | . | 3 | 2
Cc1c(Cl)cccc1NC(=S)NCC(c1cccnc1)N(C)C (stereo unspecified) | . | 9 | -10 | i | -5 | -1 | 0 | 2
CC(=O)c1cccc(NC(=O)NN2CCN(C)CC2)c1 | 3 | -10 | -15 | i | 3 | -7 | -2 | 5
O=C(NCc1c(Cl)cccc1Cl)c1ccc2nnsc2c1 | -1 | -2 | -14 | i | 1 | -7 | 0 | 0
Cc1ccc(NC(=O)CSc2ccc(-c3ccco3)nn2)c(C)c1 | -20 | 6 | 21 | i | 3 | -7 | -6 | -5
Cc1cc2occ(CC(=O)OCC(=O)Nc3sc4c(c3C#N)CCC(C)C4)c2cc1C (stereo unspecified) | . | -1 | 6 | i | -2 | -6 | -3 | 1
Cc1ccccc1CC(=O)N1CCCc2ccccc21 | 2 | -4 | -4 | i | -9 | -5 | -4 | 1
COC(=O)C1=C(C)OC(N)=C(C#N)C1c1cc(OC)c(OCC(N)=O)cc1Cl (stereo unspecified) | 0 | -21 | 3 | i | 5 | -7 | -2 | 3
COc1cc(OC)cc(C(=O)Nc2ccc(NC(=O)c3ccco3)c(C)c2)c1 | -22 | -8 | -4 | i | 39 | -5 | 4 | -1
CCCCC(=O)Nc1ccc(C(=O)NNC(=O)c2cccs2)cc1 | . | 11 | -2 | i | -4 | 45 | 5 | 8
O=C(CN(C(=O)CNC(=O)c1ccco1)c1cccc(F)c1)NC1CCCCC1 | -10 | 6 | -15 | i | . | 9 | 1 | 3
CN(C)c1nc(C(=O)NN)nc(N(C)C)n1 | -20 | . | -13 | i | -6 | -12 | 7 | 5
COc1cccc2cc(S(=O)(=O)c3ccc(C)cc3)/c(=N/NS(=O)(=O)c3ccc(C)cc3)oc12 | . | -18 | 1 | i | 5 | 4 | -2 | -4
CCN1C[C@@H]2[C@@H]3C(=O)N(C)C(=O)[C@@H]3[C@](C)(C1=O)N2C(=O)c1ccc(Br)cc1 | 4 | -13 | . | . | . | . | -1 | 1
COc1ccc(-c2nn(-c3ccccc3)cc2C(=O)OCC(=O)c2ccc(C)c([N+](=O)[O-])c2)cc1 | . | -10 | -5 | i | 39 | 16 | -2 | -10
Cc1ccc(OCC(=O)N2CCc3ccccc3C2)cc1 | -7 | -1 | -5 | i | 9 | 0 | 3 | -2
CC1CCCN(C(=O)C(=O)Nc2ccc3nc4n(c(=O)c3c2)CCCCC4)C1 (stereo unspecified) | -8 | 1 | -5 | i | -16 | 0 | 0 | 1
COc1cc(NC(=O)COC(=O)C2CC(O)CN2S(=O)(=O)c2ccc(Cl)cc2)c(C)cc1[N+](=O)[O-] (stereo unspecified) | 15 | -14 | . | . | . | . | -2 | 2
CC1CCN(c2ccc3nnc(CCC(=O)N4CCN(c5ccccc5F)CC4)n3n2)CC1 | -2 | -1 | -4 | i | 21 | 5 | 5 | 3
Cn1cccc1C(=O)OCC(=O)N1CCc2ccccc21 | -20 | . | . | . | -2 | . | 0 | -1
COCCN(C(=O)COC(=O)c1ccc2[nH]c(C)c(C)c2c1)c1c(N)n(Cc2ccccc2)c(=O)[nH]c1=O | . | -2 | . | i | -1 | . | -3 | 1
C/C=C/c1cnc2c(c1)C(=O)N([C@H](C)CO)C[C@@H](C)[C@@H](CN(C)C(=O)NC1CCCC1)O2 | 6&4 | -4 | . | . | . | . | -2 | -2
C/C(=N\Nc1cc(N2CCOCC2)nc(C)n1)c1ccc(F)cc1 | -15 | 2 | 16 | i | -3 | 7 | 0 | -2
O=S(=O)(c1ccc(Cl)c(S(=O)(=O)N2CCCC2)c1)N1CCCC1 | . | 14 | -9 | i | -6 | -4 | -4 | -4

In a second layout: results already given.
O=S(=O)(c1ccc(Cl)c(S(=O)(=O)N2CCCC2)c1)N1CCCC1
  UUG fidelity: .	Env fusion inh: 14	eIF4H FP inh: -9	Rce1 inh: i	CSC inhib: -6	PABP polyA inh: -4	MT1-MMP act inh: -4	MT1-MMP act inh RFP: -4

COc1cccc2cc(S(=O)(=O)c3ccc(C)cc3)/c(=N/NS(=O)(=O)c3ccc(C)cc3)oc12
  UUG fidelity: .	Env fusion inh: -18	eIF4H FP inh: 1	Rce1 inh: i	CSC inhib: 5	PABP polyA inh: 4	MT1-MMP act inh: -2	MT1-MMP act inh RFP: -4

CN(C)c1nc(C(=O)NN)nc(N(C)C)n1
  UUG fidelity: -20	Env fusion inh: .	eIF4H FP inh: -13	Rce1 inh: i	CSC inhib: -6	PABP polyA inh: -12	MT1-MMP act inh: 7	MT1-MMP act inh RFP: 5

Filtered by structure: those above with an aryl methoxy group
SMILES | UUG fidelity | Env fusion inh | eIF4H FP inh | Rce1 inh | CSC inhib | PABP polyA inh | MT1-MMP act inh | MT1-MMP act inh RFP
COc1ccc(N(CC(=O)N/N=C(\C)c2ccccc2)S(=O)(=O)c2ccccc2)cc1 | -12 | 2 | 2 | i | -18 | -3 | -2 | 4
COC(=O)C1=C(C)OC(N)=C(C#N)C1c1cc(OC)c(OCC(N)=O)cc1Cl (stereo unspecified) | 0 | -21 | 3 | i | 5 | -7 | -2 | 3
COc1cc(OC)cc(C(=O)Nc2ccc(NC(=O)c3ccco3)c(C)c2)c1 | -22 | -8 | -4 | i | 39 | -5 | 4 | -1
COc1cccc2cc(S(=O)(=O)c3ccc(C)cc3)/c(=N/NS(=O)(=O)c3ccc(C)cc3)oc12 | . | -18 | 1 | i | 5 | 4 | -2 | -4
COc1ccc(-c2nn(-c3ccccc3)cc2C(=O)OCC(=O)c2ccc(C)c([N+](=O)[O-])c2)cc1 | . | -10 | -5 | i | 39 | 16 | -2 | -10
COc1cc(NC(=O)COC(=O)C2CC(O)CN2S(=O)(=O)c2ccc(Cl)cc2)c(C)cc1[N+](=O)[O-] (stereo unspecified) | 15 | -14 | . | . | . | . | -2 | 2

(further entries)
SMILES | UUG fidelity | Env fusion inh | eIF4H FP inh | Rce1 inh | CSC inhib | PABP polyA inh | MT1-MMP act inh | MT1-MMP act inh RFP
CCOC(=O)N1CCC(NC(=O)c2ccc3c(c2)N=C(CC)c2cc(C)ccc2S3)CC1 | -4 | 16 | -4 | i | 54 | 4 | -10 | -19
CCOc1ccccc1NC(=O)CSc1nc2ccccc2c(=O)n1CC1CCCO1 (stereo unspecified) | . | 6 | -11 | i | -11 | 4 | -4 | -6
CCCCNC(=O)C1CC(c2cccc(F)c2)=NO1 (stereo unspecified) | -15 | -36 | 2 | i | 0 | -1 | 0 | 2
COCOCCn1cc(CN2CCS(=O)(=O)N(Cc3ccc(-c4ccccc4)cc3)C(C(C)C)C2=O)nn1 (stereo unspecified) | -9 | 7 | . | . | . | . | 6 | -2
NS(=O)(=O)c1cccc(NC(=O)COC(=O)Cn2cnc3ccccc32)c1 | -15 | 3 | 7 | i | 0 | -5 | 2 | 5
CCc1ccc(-c2cc(C)no2)cc1S(=O)(=O)NC(C)Cc1ccco1 (stereo unspecified) | . | 16 | -3 | i | -21 | 12 | 0 | -2
CCC/C(C(=O)NCCO)=C1/c2ccccc2C(=O)N1c1ccccc1 | -2 | 4 | . | . | . | . | 1 | 5
C[C@@H](CO)NC(=O)c1ccc2c3n(nc2c1)-c1ccccc1CO3 | -67 | -110 | 2 | i | 19 | 1 | 3 | 5
CN(CC(=O)Nc1ccc(F)cc1[N+](=O)[O-])C1CCS(=O)(=O)C1 (stereo unspecified) | -11 | 3 | . | . | -6 | . | 0 | 5
COCCN(C(=O)c1ccco1)c1nc(-c2ccc(OC)cc2)cs1 | -6 | -26 | . | . | . | . | 1 | -3
O=C(COc1ccccc1C(=O)O)Nc1ccc(SC(F)F)cc1 | -3 | -12 | 2 | i | . | 11 | 3 | 0
CC1CN(CCCCOc2ccc(Cl)c3ccccc23)CC(C)O1 (stereo unspecified) | -10 | 21 | 5 | . | 41 | 11 | 1 | -2
COC(=O)c1ccc(CN2C(=O)C3CCCCC3C2=O)o1 (stereo unspecified) | . | 20 | -4 | i | -15 | -3 | 1 | 2
Cc1ccc(NC(=O)CN(C)CC(=O)NC2CCCc3ccccc32)cc1 (stereo unspecified) | . | 20 | 2 | i | -13 | -2 | 3 | -2
CCN(CC)S(=O)(=O)c1ccc(NS(=O)(=O)c2cccc(C)c2)cc1 | -15 | -5 | -8 | i | . | -6 | 0 | -4
CCCCN(C(=O)CN1C(=O)C2CCCCC2C1=O)c1c(N)n(Cc2ccccc2)c(=O)[nH]c1=O (stereo unspecified) | -6 | -4 | . | i | -7 | . | 0 | 2
O=C(CN1CCN(C/C=C/c2ccccc2)CC1)Nc1ccc(F)cc1F | . | 13 | -10 | i | 2 | 13 | 7 | -1
COc1ccc(/C=C(\C#N)C(=O)OCCNC(=O)c2ccncc2)cc1 | . | 7 | 3 | i | 3 | 5 | -4 | -3
Cc1ccc(C(C)C)cc1S(=O)(=O)Nc1cccnc1 | -9 | -2 | -4 | i | -12 | -1 | -1 | -1
CCN(CC)CCNC(=O)c1ccc(NC2=NC3CS(=O)(=O)CC3S2)cc1 (stereo unspecified) | -4 | -29 | 2 | i | 4 | 9 | -1 | 0
CC(C)(C)c1ccc(-c2nc(-c3ccncc3)no2)cc1 | -25 | . | -9 | i | 33 | -2 | -5 | -17
Cc1nnc2ccc(-c3cccc(NC(=O)c4ccc(Br)o4)c3)nn12 | . | 5 | -8 | i | -6 | 11 | 11 | 6
COc1ccc(C(=O)c2ccc(OC)c(OC)c2)cc1 | -6 | 16 | -2 | i | -4 | -5 | 5 | 4
COc1cc(=O)n(C)c2ccccc12 | -10 | . | 1 | i | -7 | 10 | . | .
CCOC(=O)C(Cc1ccc(NC(C)=O)cc1)N1C(=O)c2ccccc2C1=O (stereo unspecified) | -1 | 0 | . | . | . | . | -3 | -11
Cc1cccn2c(=O)c3cc(C#N)c(=O)n(CCCN4CCOCC4)c3nc12 | -21 | -107 | 20 | ? | 0 | 29 | -1 | 5
CCC(C(=O)NCCc1ccc(OC)c(OC)c1)n1nc(C)n2c(cc3occc32)c1=O (stereo unspecified) | -1 | -14 | -10 | i | -17 | -8 | -1 | 2
Cc1sc2c(c1C)C(=O)/C(=C\Nc1ccccn1)S(=O)(=O)N2C | -11 | -8 | 1 | i | 0 | 6 | 1 | 2
COC(=O)c1ccc2nc(C(F)(F)F)[nH]c2c1 | -17 | -5 | 2 | i | -5 | 3 | 4 | -3
COCCNC(=O)CCN1N=C(c2ccccc2)CCC1=O | -8 | 35 | -11 | i | . | 3 | -2 | 1
O=C(NNC(=O)c1ccc(Cl)c(S(=O)(=O)Nc2ccc(Cl)cc2)c1)c1ccc(=O)[nH]c1 | . | -22 | . | i | -16 | . | 2 | 0

An unsorted share of the library. About 2.9% of those tested had a hit in this group.
